Rango dissoc inh – inhibitors of RanGTP-induced Rango-importin beta complex dissociation; actives 0.071% (n = 340,000); Potency, µM (titrated, usually from 46.1 µM), for the others: at the top dose activity change, negative = inhibition; AID 540253; Biochemical FRET Rango-importin beta, RanGTP-induced dissociation; active means falling FRET ratio curve, often poorly fitted, with flat reads before Ran was added; inconclusive means other falling curves, or compound fluorescence or quenching; inactive means flat or rising ratio curve;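 further: potency means the concentration at half of the fitted maximal effect; % of control where 0% means no effect; nearly all actives have a fitted effect of over 45% in size; -100% = wells without RanGTP and RCC1; the record marks most hits as doubtful in a second field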
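Rango/importin beta premix (0.1/0.25 uM final), PBS + 1 mM DTT + 0.02% Tween-20 + 0.1% BSA; cpd 5 min RT; FRET pre-read; + RanGTP-RCC1 (0.6 uM Ran, 2 mM GTP, 0.2 uM RCC1); 45 min RT; FRET post-read, ex 430, em 486/530 nm.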
Rango complex inh – Rango-importin beta binding inhibition; Potency, µM (titrated, usually from 92.2 µM), without a hit: top-dose inhibition of complex formation; AID 540263; Q14974; actives 0.031% (n = 340,000); Rango CFP/YFP FRET sensor + importin beta, 45 min; active = rising FRET ratio curve, often small or poorly fitted; inconclusive = mostly compound fluorescence or quenching in the first reads; inactive = flat curves in all reads;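 further: potency means the concentration at half of the fitted maximal effect; 0% = DMSO wells and 100% = buffer wells lacking importin beta; nearly all actives have a fitted effect of over 15% in size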
Target sequence (Q14974 whole entry, looked up): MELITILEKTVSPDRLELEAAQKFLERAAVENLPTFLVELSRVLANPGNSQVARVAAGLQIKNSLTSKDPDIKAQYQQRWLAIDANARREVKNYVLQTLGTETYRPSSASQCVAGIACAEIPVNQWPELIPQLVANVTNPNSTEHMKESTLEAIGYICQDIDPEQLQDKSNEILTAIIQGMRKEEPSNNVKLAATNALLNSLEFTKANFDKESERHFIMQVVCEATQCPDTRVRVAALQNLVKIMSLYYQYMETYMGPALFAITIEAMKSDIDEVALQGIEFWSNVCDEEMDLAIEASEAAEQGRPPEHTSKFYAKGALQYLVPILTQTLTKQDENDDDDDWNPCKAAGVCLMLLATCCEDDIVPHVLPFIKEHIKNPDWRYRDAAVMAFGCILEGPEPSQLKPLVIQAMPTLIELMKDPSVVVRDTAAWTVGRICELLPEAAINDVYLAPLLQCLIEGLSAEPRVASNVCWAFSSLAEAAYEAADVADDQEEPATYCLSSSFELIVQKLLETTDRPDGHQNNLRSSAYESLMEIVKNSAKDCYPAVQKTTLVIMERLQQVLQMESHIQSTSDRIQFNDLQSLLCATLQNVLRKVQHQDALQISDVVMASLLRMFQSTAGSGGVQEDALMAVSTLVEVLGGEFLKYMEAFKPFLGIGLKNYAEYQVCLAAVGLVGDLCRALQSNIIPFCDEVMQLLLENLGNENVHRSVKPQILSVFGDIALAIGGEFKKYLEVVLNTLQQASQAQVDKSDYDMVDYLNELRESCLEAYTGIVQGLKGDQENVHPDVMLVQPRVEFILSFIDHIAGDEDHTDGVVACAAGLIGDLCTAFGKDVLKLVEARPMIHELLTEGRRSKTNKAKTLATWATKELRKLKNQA
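Inhibition scored from the CFP 486 nm/YFP 530 nm FRET ratio 45 min after adding 0.125 microM importin beta to 50 nM Rango biosensor preincubated 5 min with compound (room temperature, PBS with DTT, Tween-20, BSA). No-importin wells as positive control.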
GLA inh pH 4.5 – alpha-galactosidase A (human) inhibition, pH 4.5 | activity change, negative = inhibition, % at 105 µM | AID 1467 | P06280 | 230,000 tested, under 10 active | purified enzyme, 4-MU-alpha-Gal fluorescence, pH 4.5; inconclusive = small, poorly fitted or top-dose-only inhibition, or a rising curve; inactive = flat fitted curve, though single readings scatter; no compound was filed as active;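 further: 0% = full activity with enzyme and -100% = basal without enzyme; dose as in the result columns while the protocol names 77 µM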
miR-21 FLuc – miR-21 reporter, rising signal. Potency, µM (titrated, usually from 38.3 µM), inactives show top-dose reporter change, positive = more light. HeLa miR-21 FLuc reporter, luciferase, 48 h. 340,000 tested, under 10 active; active = well fitted rising curve with a large enough effect; inconclusive = small, poorly fitted or top-dose-only effect; inactive = no such curve, though single readings can be large or run the other way;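 further: % of control where 0% means no effect; miR-21 action dims this reporter so a rising signal means less miR-21 action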
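HeLa cells stably expressing CMV-driven firefly luciferase with a downstream miR-21 binding sequence, endogenously expressing miR-21, were treated with titrations (up to about 40uM final) for 48 hours at 37 degree Celsius. Luciferase luminescence was read after lysis.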
An asterisk follows results filed as active; ? = inconclusive; nt = not tested or not shown; & = joins results of further samples.

SMILES	Rango dissoc inh	Rango complex inh	GLA inh pH 4.5	miR-21 FLuc
O=C1CCc2cc(S(=O)(=O)Nc3cccc(F)c3)cc3c2N1CC3	-3%	2.8%	nt	nt
CC(=O)c1cccc(NC(=O)c2ccc(C)c(S(=O)(=O)N3CCOCC3)c2)c1	11%	-1.7%	nt	0%
O=[N+]([O-])c1cccc(-c2ccc(/C=N/NC(=S)Nc3ccccc3)o2)c1	-1%	5.2%	-3	-19%
COc1cc(C(=O)OCC(=O)NCC2CCCCC2)ccc1OCC(C)C	10%	-3.5%	nt	nt
O=C(COC(=O)c1ccccn1)Nc1cccc(Cl)c1Cl	1%	0.2%	1	3%
Cc1ccc(S(=O)(=O)N2CCN(CC(=O)N/N=C\c3ccc(O)c(O)c3)CC2)cc1	-4%	0.0%	4	-11%
COc1cc(Cn2nnc3ccccc32)ccc1O	31%	-0.4%	nt	-19%
Nc1nc(NC(=O)c2ccco2)nn1-c1ccccc1	1%	3.4%	-3	-35%
CCOC(=O)Nc1ccc2c(c1)N(C(=O)CCN1CCOCC1)c1ccccc1S2=O (centres undefined)	11%	-1.3%	3	?
Cc1ccc(Cl)cc1N1CCN(C(=O)CNC(=O)c2ccc(Br)o2)CC1	0%	0.7%	nt	nt
C/C(=N\Nc1ccc2nncn2n1)c1ccco1	6%	0.6%	-5	0%
CN(C1CCCCC1)S(=O)(=O)c1ccc(NC(=O)c2ccc(Br)o2)cc1	-13%	?	-17	7%
NC(=O)Cc1cn(-c2ncc(C(F)(F)F)cc2Cl)c2ccccc12	1%	-0.1%	-7	-9%
Cc1ccc(NC(=O)Nc2cccs2)nc1	2%	0.5%	1	-42%
CNC(=O)CSc1nnc(NC(=O)C2CC(=O)N(c3ccccc3OC)C2)s1 (centres undefined)	-10%	0.3%	nt	1%
CCN(CC)CC#CCC(O)(c1ccccc1)c1ccccc1	-10%	-0.4%	-4	2%
COc1ccc(/C=N/Nc2nnc(Cc3ccc(OC)c(OC)c3)c(=O)[nH]2)cc1OC	1%	-3.4%	6	-8%
COc1cc(C2NC(=O)C(C#N)=C(S)N2c2ccc(C)cc2)ccc1OC(C)C (centres undefined)	-1%	-2.6%	10	-1%
Cc1ccc(CSCC(=O)NCc2ccc(F)cc2)cc1	2%	1.3%	-8	5%&1%
CCCCOC(=O)Oc1ccc2c(=O)c(Oc3cc(C)cc(C)c3)coc2c1	-10%	0.6%	-5	-2%
Nc1nc(SCC(=O)Nc2c(Br)cc([N+](=O)[O-])cc2Br)n[nH]1	3%	7.6%	-6	-3%
S=C(NCc1ccc(Cl)cc1)Nc1ccncc1	-4%	4.4%	nt	17%
CCN(CC(=O)c1c(N)n(C)c(=O)n(C)c1=O)c1cccc2ccccc12	-6%	-1.8%	2	-1%
CCn1c(C)nnc1SCC(=O)NC1CCCCCC1	5%	1.2%	nt	0%
COc1ccc(CCNC(=O)c2cc3c(=O)n4cccc(C)c4nc3n(Cc3ccncc3)c2=N)cc1	nt	nt	11	2%
CCOc1ccc(N(CC(=O)Nc2cccnc2)S(=O)(=O)c2ccc(C)cc2)cc1	-3%	5.2%	nt	nt
Cc1ccc(NC(=O)CNC(=O)CC23CC4CC(CC(C4)C2)C3)c(O)c1	-2%	-2.3%	nt	nt
O=C(N/N=C/c1ccccn1)c1ccc([N+](=O)[O-])cc1Cl	1%	-3.0%	nt	-15%
O=C1CCC(/C=C/c2ccccc2)=NN1	1%	0.9%	2	-28%
Cc1cc(Cl)ccc1OCC(=O)N(Cc1cccs1)C1CCS(=O)(=O)C1 (centres undefined)	14%	7.7%	nt	0%
CN1CCN(c2ccc(NC(=O)c3cc(Cl)c4c(c3)OCCO4)cc2)CC1	11%	-4.4%	nt	nt
CC(C)OC(=O)c1ccc(NC(=O)c2cncc(Br)c2)cc1	-1%	0.7%	-1	13%
O=C(NCCc1ccccn1)c1cc(-c2ccc(Cl)c(Cl)c2Cl)nc2ccccc12	-2%	1.1%	-16	16%
CCCCCOC(=O)CSc1nnc(-c2ccccc2)c(=O)[nH]1	-4%	-0.4%	-5	-1%
N#Cc1c(N)nc(Sc2ccc(Cl)cc2)c(C#N)c1-c1ccccc1Cl	-10%	0.0%	-4	?
COCCN=c1scc(-c2cccs2)n1/N=C(\C)c1ccco1	-3%	3.5%	-10	-43%
Cc1ccc(S(=O)(=O)N(C)c2ccc(OCC(=O)Nc3nnc(C4CC4)s3)cc2)cc1	9%	-2.5%	-4	5%
CN(C)CCn1c(SCc2ccccc2C#N)nc2c(sc3ccccc32)c1=O	-5%	-1.7%	nt	-3%
COc1cccc(CN(C)CC(=O)Nc2cc(S(=O)(=O)N3CCCC3)ccc2Cl)c1OC	1%	-1.0%	nt	nt
O=C(CSc1nccn1-c1ccc(Cl)cc1)N1CCCc2ccccc21	-1%	3.7%	3	-8%
COC(=O)C1CCN(C(=O)CSc2nnc(-c3ccccc3)o2)CC1	-14%	0.0%	nt	nt
Cc1ccc(C2=NN(CC(=O)NCc3ccco3)C(=O)CC2)cc1	-2%	0.2%	4	0%
COCCN1C(=O)C(=O)/C(=C(/O)c2cccc(OC)c2)C1c1ccco1 (centres undefined)	-3%	-1.3%	2	0%
CCCCOC(=O)C1=C(C)NC(=O)NC1c1ccccc1 (centres undefined)	-18%	-1.0%	nt	9%
CCCNC(=O)CCc1cc(C(C)(C)C)c(O)c(C(C)(C)C)c1	2%	?	3	-6%
Cc1nnc(SCCn2c(Br)nc3c2c(=O)n(C)c(=O)n3C)s1	13%	2.9%	5	4%
CCCC(C(=O)NC1CCCC1)N(CC1CCCO1)C(=O)CNS(=O)(=O)c1ccc(F)cc1 (centres undefined)	0%	-0.2%	nt	1%
COc1ccc(N(CC(=O)Nc2nccs2)S(=O)(=O)c2c(C)nn(C)c2C)cc1	-4%	3.1%	7	8%
Clc1ccc(/C=N/c2c(-c3ccc(Cl)cc3)nc3n2CCS3)cc1	2%	5.2%	0	-17%
CC(C(=O)Nc1ccc2c(c1)OCCO2)N(c1ccccc1)S(C)(=O)=O (centres undefined)	1%	-1.7%	1	5%

Going on with the list.
SMILES	Rango dissoc inh	Rango complex inh	GLA inh pH 4.5	miR-21 FLuc
Brc1cccc(CNc2nc3ccccc3n2CCN2CCCCC2)c1	-1%	8.1%	-13	7%
O=C(c1cc(-c2ccc(Cl)cc2)n(-c2cc(Cl)ccc2Cl)n1)N1CCOCC1	-8%	-1.7%	-1	-2%
CN=c1sc2c(n1C)C(=O)c1ccccc1C2=O	9%	5.5%	nt	nt
CCCNCC1COc2ccccc2O1 (centres undefined)	-16%	-4.3%	-4	0%
COc1ccc(OC)c(NC(=O)C23CC4CC(C2)CC(n2cnc(Br)n2)(C4)C3)c1	1%	-9.2%	-6	1%
O=C(NCCc1ccc(Cl)cc1)Nc1ccc(Cl)cc1	11%	-0.2%	-1	-15%
O=C(Nc1ccc(N2CCN(C(=O)c3cccs3)CC2)c(Cl)c1)c1cccnc1	-1%	-3.3%	1	21%
Cc1cc(NC(=O)c2c(-c3ccccc3Cl)noc2C)no1	-30%	?	5	9%
CCC(C)c1ccccc1NC(=O)C(C)NCCN(C)C (centres undefined)	-1%	6.5%	-1	-20%
CCOc1nc(NCc2ccco2)nc(Nc2ccc(OC)cc2)n1	-3%	3.8%	-8	-24%
CCOC(=O)N1CCN(C(=O)C2CC(=O)N(c3ccccc3)C2)CC1 (centres undefined)	0%	1.2%	nt	-1%
Cc1cc(C)nc(-n2ncc3c2CC(c2ccccc2)CC3=O)n1 (centres undefined)	10%	1.4%	-3	-19%
CN(C)c1ccc(C(=O)C(O)c2ccccc2)cc1 (centres undefined)	4%	7.2%	-9	-7%
Cc1cnc(C(=O)OCC(=O)N(C)CC(=O)Nc2ccccc2Cl)cn1	14%	-0.9%	nt	nt
CCCc1[nH]nc2c1C(c1ccncc1)C(C#N)=C(N)O2 (centres undefined)	-6%	0.4%	2	-1%
Cc1ccc(C(=O)OCC(=O)N(CCc2ccccc2)Cc2ccccc2)cc1S(=O)(=O)N1CCOCC1	7%	0.5%	nt	nt
CN(CC(=O)NC1CC1)S(=O)(=O)c1cc(Cl)ccc1Cl	6%	3.3%	nt	0%
COCCCNC(=O)c1nc2ccccc2c(=O)n1NC(=O)Nc1c(Cl)cccc1Cl	-1%	7.4%	nt	-1%
O=C1CC(c2c[nH]c3ccccc23)C(=O)N1c1ccccc1 (centres undefined)	-17%	-1.0%	-1	-26%
Cc1cccn2c(=O)nc(SCC(=O)NC3CCCCC3)nc12	-9%	-3.6%	nt	nt
O=C(Nc1cccc(S(=O)(=O)NC2=NCCC2)c1)c1cc(Cl)ccc1[N+](=O)[O-]	-12%	5.4%	nt	nt
COc1ccccc1C(=O)Nn1cnc2ccccc2c1=O	-5%	2.3%	12	-48%
Cc1ccc(N(CC(=O)NC2CCCCC2)C(=O)CNC(=O)c2ccco2)c(C)c1	-1%	0.2%	nt	-5%
Nc1nc(SCC(=O)Nc2ncc(C(F)(F)F)cc2Cl)n[nH]1	-5%	4.7%	2	-1%
O=C(COC(=O)CCCNC(=O)c1ccc(Cl)cc1)NC1CC1	3%	-0.3%	-2	1%
CN(C)CCCNC(=O)/C(=C\c1ccc(-c2cccc([N+](=O)[O-])c2)o1)NC(=O)c1ccccc1	25%	1.1%	-17	-15%
Fc1ccc(NC(=S)NC2CC3CCCC(C2)N3Cc2cccs2)cc1 (centres undefined)	0%	5.6%	-2	7%
CC(C)NC(=O)COC(=O)c1cc(Br)ccc1Cl	0%	-0.7%	6	0%
COc1ccc(C(=O)COC(=O)COc2cc(C)cc(C)c2)cc1	1%	1.6%	nt	-1%
NS(=O)(=O)c1cccc(NC(=O)CCc2ccc(S(=O)(=O)N3CCOCC3)cc2)c1	9%	-2.8%	nt	nt
CCN(CC)S(=O)(=O)c1cc([N+](=O)[O-])ccc1N=Nc1c(O)[nH]c2ccccc12	0%	-2.3%	-8	-1%
CC(C)(C)C1CCC(=NNS(=O)(=O)c2ccc(Br)cc2)CC1 (centres undefined)	3%	1.3%	-6	-13%
CCOc1ccc(C(=O)CCC(=O)NC(C)C(=O)OC)cc1 (centres undefined)	-4%	2.3%	?	-2%
O=C(NCCc1ccc(F)cc1)c1cccc2c1C(=O)c1ccc(N3CCC(Cc4ccccc4)CC3)cc1S2(=O)=O	?	?	nt	nt
COc1ccc(-c2c(-c3cc(OC)cc(OC)c3)n(C)c3ccc(-c4ccc5[nH]ccc5c4)cc23)cc1	-4%	0.7%	nt	nt
CCOC(=O)C(=CNc1ccc(S(N)(=O)=O)cc1)C(=O)OCC	-7%	0.3%	-6	1%
O=C(CSc1nnc(-c2cccc(S(=O)(=O)N3CCCCC3)c2)o1)NCCC1=CCCCC1	37%	-3.6%	0	-3%
O=C(c1ccccc1)N1N=C(c2cccs2)CC1c1ccccc1O (centres undefined)	-5%	5.2%	nt	-2%
CCCCCCC(=O)Nc1ccc(Br)cn1	-12%	-0.6%	2	-28%
Cc1ccc(N2CCN(/N=C/C3=C(N4CCOCC4)C(=C\c4ccccc4)/CC3)CC2)cc1	-9%	-2.1%	2	0%
CCc1ccc(NC(=S)N2CCCC2)cc1	-10%	-2.2%	nt	-46%
CCc1nnc(NS(=O)(=O)c2ccc(NC(=O)c3cccc4ccccc34)cc2)s1	2%	4.9%	-4	1%
c1ccc(-c2ccccc2OCCCCN2CCCCC2)cc1	2%	0.2%	-4	8%
C=CCn1c(SCC(=O)NCc2ccco2)nc2sc(C)c(C)c2c1=O	2%	-1.4%	nt	nt

An excerpt, so the mix of outcomes need not match the whole.
